# Assay outcomes from PubChem.
# Menin-MLL FL inh: displaces fluorescein MLL peptide from human menin; Fluorescence polarization, fluorescein-MLL peptide displacement from menin; FP activity change, % at 61.4 µM; 290,000 tested, under 10 active; inconclusive = falling polarisation curve, or a change in total fluorescence; inactive = total fluorescence flat and polarisation flat or rising; no compound was filed as active; the % refers to the polarisation; negative = inhibition;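 further: % of control where 0% means no effect; inhibitors lower the polarisation; unlabelled MLL peptide was the positive control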
# Sfp PPTase inh: inhibitors of Bacillus subtilis Sfp phosphopantetheinyl transferase; Potency, µM, for the others: max response, negative = inhibition, hits mostly inhibitors; 310,000 compounds, 3.5% hits; AID 1490; Q9F4F7; Biochemical Sfp PPTase activity, qHTS; active means well fitted inhibition curve with a large enough effect; inconclusive means small, poorly fitted or top-dose-only effect, or another doubt; inactive means no such curve, though single readings can be large or run the other way;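 further: the enzyme is Sfp with the accession as filed and its product quenches rhodamine fluorescence; potency means the concentration at half of the fitted maximal effect; 0% = enzyme reaction without inhibitor and -100% = no enzyme wells; top concentration of the series not given in the record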
#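 Sfp 15 nM + cpd, 15 min RT; start w/ rhodamine-CoA 5 uM, BHQ-2-YbbR 12.5 uM (final); 50 mM Hepes pH 7.6, 10 mM MgCl2, 0.01% NP-40, 0.01% BSA; read 525/598 nm at 0 and 30 min.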
# TRPML1 inh: human mucolipin-1 channel inhibition; 390,000 compounds, 0.02% hits; TRPML1-inducible cells, Ca2+ dye fluorescence, FDSS; hits give low values; inhibition of EC80 agonist-evoked calcium signal; Q9GZU1; activity change, negative = inhibition, % (no concentration beside the values); AID 624415; in the data active means activity change below about -50%; inconclusive means about -30% to -50%; inactive means above about -30%;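 further: stimulus is agonist 54-4 at its EC80 concentration; on the % scale 0 is the no-effect control and ±100 the full control effect; compound concentration not given in the record; the text of the record puts the active cut at -80%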
# Target sequence (Q9GZU1 whole entry, looked up): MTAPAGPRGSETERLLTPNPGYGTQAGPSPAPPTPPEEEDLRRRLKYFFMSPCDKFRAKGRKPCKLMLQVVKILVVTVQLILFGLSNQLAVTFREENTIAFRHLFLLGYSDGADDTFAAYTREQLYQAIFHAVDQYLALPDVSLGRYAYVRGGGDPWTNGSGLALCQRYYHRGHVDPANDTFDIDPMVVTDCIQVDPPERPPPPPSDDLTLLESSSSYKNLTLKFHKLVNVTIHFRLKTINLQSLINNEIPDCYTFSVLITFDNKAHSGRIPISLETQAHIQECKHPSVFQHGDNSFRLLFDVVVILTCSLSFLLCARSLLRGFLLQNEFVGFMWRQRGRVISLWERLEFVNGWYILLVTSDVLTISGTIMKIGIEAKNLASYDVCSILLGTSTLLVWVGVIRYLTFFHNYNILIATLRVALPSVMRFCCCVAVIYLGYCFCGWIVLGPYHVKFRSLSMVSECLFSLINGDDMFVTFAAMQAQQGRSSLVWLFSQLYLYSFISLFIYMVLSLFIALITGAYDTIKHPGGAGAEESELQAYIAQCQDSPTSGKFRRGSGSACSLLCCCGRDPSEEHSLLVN
#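 TRPML1-DL cells, Tet-induced overnight (~16 h, 37 °C) at 1,500 cells/well, were loaded with Ca8 no-wash dye plus quencher for 45-90 min at room temperature. Compounds were pinned during FDSS kinetic reading; agonist 54-4 at EC80 (4 uM final) then added.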
# gsp antag: antagonizes gsp, the McCune-Albright syndrome mutation; AID 624288; Potency, µM (doses to about 76.9 µM), without a hit: top-dose activity change, negative = inhibition, most hits filed as inhibitors; gsp-mutant cells, cAMP HTRF, 30 min; control for the full effect not named in the record; 340,000 compounds, 0.4% hits; active = falling curve of any shape with a large fitted effect; inconclusive = falling curve, mostly with a smaller effect; inactive = flat or rising curve; cell line not stated here;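 further: intracellular cAMP measured with PDE inhibitor Ro 20-1724 present during compound exposure; potency means the concentration at half of the fitted maximal effect; on the % scale 0 is the no-effect control and ±100 the full control effect; nearly all actives have a fitted effect of over 65% in size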
#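 Measurement of cellular cAMP by homogeneous time-resolved fluorescence following a 30 min compound exposure at 37C. The PDE inhibitor […] was present throughout; the assay buffer was DPBS with 0.05% BSA and 0.005% Tween 20.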
# gsp ag: activates gsp, the McCune-Albright syndrome mutation; gsp mutant cells, cAMP HTRF, 30 min; control for the full effect not named in the record; Potency, µM (doses to about 76.9 µM), inactives show top-dose activation (cAMP increase), usual class: activators; 340,000 compounds, 0.13% hits; AID 624287; active = well fitted activation curve with a large enough effect; inconclusive = small, poorly fitted or top-dose-only effect, or another doubt; inactive = no such curve, though single readings can be large or run the other way; cell line not stated here;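 further: phosphodiesterase inhibitor Ro 20-1724 added with compounds to block cAMP breakdown; potency means the concentration at half of the fitted maximal effect; nearly all actives have a fitted effect of over 60% in size; about a fifth of the inactives were tested at one dose only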
#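 Cells stably selected in G418 were plated at 2000/well, grown 16-24 hr, then given compounds in DMSO with the PDE inhibitor […] (300 uM solution added) for 30 min at 37C; cAMP was read by HTRF.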
# ClpP mod: qHTS Assay for Activators of ClpP; Potency, µM (top dose mostly 57.5 µM), without a hit: at the top dose activity change, negative = active; ATP-dependent Clp protease proteolytic subunit (Bacillus subtilis (strain 168)), P80244; purified B. subtilis ClpP, FRET peptide cleavage, 20 min; AID 651965, 2013; 340,000 compounds, 1.9% hits; active = well fitted falling curve with a large enough effect; inconclusive = small, poorly fitted or top-dose-only effect; inactive = no such curve, though single readings can be large or run the other way; further: potency means the concentration at half of the fitted maximal effect; the source files actives as falling curves though it sought activators and does not explain the sign; nearly all actives have a fitted effect of over 65% in size; many hits overshoot -100%
# Target sequence (P80244 whole entry, looked up): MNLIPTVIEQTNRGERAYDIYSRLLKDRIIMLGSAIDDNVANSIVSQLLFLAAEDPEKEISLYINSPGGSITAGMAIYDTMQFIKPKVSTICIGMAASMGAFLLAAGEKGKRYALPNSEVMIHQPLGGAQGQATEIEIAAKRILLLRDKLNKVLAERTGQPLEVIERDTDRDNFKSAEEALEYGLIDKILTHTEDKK
#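 Buffer: 100 mM Tris/HCl pH8, 100 mM KCl, 0.05% low protease BSA, 2.5% glycerol, 0.01% Tween-20. ClpP 10 microg/mL final; 20 min RT; delta FRET normalized to ADEP and DMSO controls.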
# TRPV1 potentiator: enhances activation of the human vanilloid receptor TRPV1; potentiation, % at 8.33 µM; TRPV1-expressing cells, Fluo-8 calcium influx, capsaicin EC20 potentiation; host cell line not named in the record; control for the full effect not named in the record; AID 540277; 320,000 compounds, 0.02% hits; active means potentiation above 80%; inconclusive means 30% to 80%; inactive means below 30%; further: 0% is about no effect
#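 TRPV1-expressing cells were cultured overnight at 35.5C and loaded with Fluo-8 calcium dye for 40 to 90 min at room temperature. After a 10 s baseline, compound was added and calcium influx was read kinetically for 3 min (ex 480/em 520 nm).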
# Active calls of the source: *; ? = inconclusive; / = no result given; & = joins results of further samples; [ ] = another dose, or the depositor's remark.
SMILES,Menin-MLL FL inh,Sfp PPTase inh,TRPML1 inh,gsp antag,gsp ag,ClpP mod,TRPV1 potentiator
O=C(CCc1nnc(COc2ccccc2)o1)NCc1ccccc1C(F)(F)F,-1.6,25%,-16,-8%,0%,1.9%,1
CCOCc1nnc(NC(=O)C2CCN(C(=O)C3CC(=O)N(c4ccc(C)cc4)C3)CC2)s1 (stereo not given),/,0%,-13,-7%,28%,/,2
CCOC(=O)C1CCN(C(=O)c2ccc3c(=O)n4nc(Nc5ccccc5CC)sc4nc3c2)CC1,/,/,-5,/,-64%[inhibitor],-6.8%,/
O=C(c1cccc(Cl)c1)N1CCN(Cc2c[nH]c3ccccc23)CC1,0.0,15%,10,-2%,12%[15.4 µM],/,-8
CCNC(=O)CSc1nnc(-c2ccc(OC)cc2)n1CC(C)C,2.9,25%,-13,1%,-32%[inhibitor],-3.4%,-20
CC(C)(C)c1ccc(OCCSc2nc3ccccc3n2CC(=O)O)cc1,2.4,-7%,6,-16%,-1%,0.4%,8
COc1cccc(NC(=O)CNC(=O)c2ccc(F)cc2)c1,1.9,6%,-12,4%,17%,-9.6%,10
Cc1cc(NC(=O)CN2C(=O)NC(c3ccccc3)(c3ccc(C)c(C)c3)C2=O)no1 (stereo not given),/,/,2,-18%,11%,0.2%,7
Cc1ccc(-n2cnnn2)c2cccnc12,0.0,21%,-7,4%,12%,-4.7%,-7
CC(=O)N=C1SC2CS(=O)(=O)CC2N1c1cccc(Cl)c1Cl (stereo not given),3.5,12%,11,4%,26%,1.2%,-3
C#CCn1c(=NC(=O)c2ccco2)sc2cccc(Cl)c21,1.1,14%,-7,4%,31%[15.4 µM],/,-1
COCCCn1c(SCC(=O)NC(C)C)nnc1-c1ccccc1,-1.1,18%,-7,6%,8%,-3.3%,-11

# Looked up above.
# In TRPV1 potentiator, O=C(c1cccc(Cl)c1)N1CCN(Cc2c[nH]c3ccccc23)CC1 is entered as -8
# In gsp ag, COc1cccc(NC(=O)CNC(=O)c2ccc(F)cc2)c1 is entered as 17%

# Remaining list, next part:
SMILES,Menin-MLL FL inh,Sfp PPTase inh,TRPML1 inh,gsp antag,gsp ag,ClpP mod,TRPV1 potentiator
COc1ccc(C=O)cc1OC1C=CCCC1 (stereo not given),-0.7,14%,4,5%,-29%,-2.1%,-9
CCN(CC)CCN(C(=O)c1ccc([N+](=O)[O-])cc1)c1nc2ccc(OC)cc2s1,-0.2,-8%,-13,8%,-17%,1.5%,-2
CCOc1ccccc1N(C(C)=O)S(=O)(=O)c1ccc(Cl)cc1,-0.7,11%,-6,8%,-12%[15.4 µM],?,-19
COc1ccc(NS(=O)(=O)c2cn(C)cn2)cc1OC,2.5,-2%,88,0%,5%,0.2%,7
CC(C)C[C@H](NC(=O)[C@@H]1Cc2ccccc2CN1C(=O)OC(C)(C)C)C(=O)NCC1CCC(C(=O)O)CC1 (stereo not given in full),-1.2,29%,-4,4%,6%[15.4 µM],/,4
COc1ccccc1CNC(=O)COC(=O)Cn1cnc2c1c(=O)n(C)c(=O)n2C,/,/,0,/,-33%[inhibitor],0.1%,/
COc1ccc2c(c1)CCc1c(C(=O)NCc3ccc(F)cc3)noc1-2,-0.9,-7%,38,-4%,2%,-11%,-12
COCCn1nnnc1CN1CCSCC1,-2.5,3%,8,-4%,25%,1.8%,24
COc1ccc(Cl)cc1NC(=O)CN(C)CC(=O)Nc1ccccc1C(F)(F)F,0.2,5%,-8,-19%,6%[15.4 µM],/,-2
Cc1cccc(-n2c(=O)cc(N3CCN(c4ccc(F)cc4)CC3)[nH]c2=O)c1,-2.5,3%,32,-6%,10%,-2.0%,-2
CCN(c1ccccc1)S(=O)(=O)c1ccc(N)c(OC)c1,4.3,-17%,14,17%,2%[15.4 µM],1.4%,17
CC(=O)OCc1nc2sc(C)c(C)c2c(=O)[nH]1,-1.5,2%,-5,-3%,-3%,-1.4%,0
O=C(N/N=C/c1ccc(F)cc1)c1cc(-c2ccccn2)nc2ccccc12,/,/,7,0%,-41%[inhibitor],-3.7%,5
Cc1sc2ncn(CC(=O)NCCCC(=O)N3CCCCC3)c(=O)c2c1C,-1.4,23%,-4,10%,?,/,-7
Cc1ccccc1C(=O)Nc1ccc(S(=O)(=O)Nc2onc(C)c2C)cc1,-2.7,-3%,1,1%,-5%[15.4 µM],/,1
CCOc1ccc(NS(=O)(=O)c2ccc(-c3coc(C)n3)cc2)cc1,0.8,0%,-5,-14%,80%,-0.4%,-1
CN1CCN(C(=O)c2ccccc2Nc2ccc(SC(F)F)cc2)CC1,-5.4,-2%,26,6%,1%,-0.8%,-8
N#CC1=C(N)SC(C(=O)c2ccccc2)C1c1cccs1 (stereo not given),3.9,-5%,9,22%,5%,0.8%,10
CC(C)(C)c1ccc(C(=O)NNC(=O)c2cccc(-n3cnnn3)c2)cc1,2.5,9%,3,9%,?,0.0%,-10
c1ccc(-c2nnc3ccc(N4CCCC4)nn23)cc1,5.1,3%,-8,?,-70%,-1.0%,-7
O=C(NCc1ccccc1)c1cccc(NC(=O)c2ccccc2)c1,/,/,-8,-7%,/,-1.2%,/
CCCOc1ccc(C(=O)NCc2ccco2)cc1,1.1,11%,6,-6%,6%,0.5%,-13
CCn1c(-c2cccc(S(=O)(=O)N3CCCC3)c2)n[nH]c1=S,4.9,-27%,-26,-3%,22%,-1.6%,11
Cc1nc(S/C(=C\c2ccc(OCc3ccccc3Cl)cc2)C(=O)O)n[nH]1,-1.1,4%,-7,-3%,-42%[inhibitor],-0.7%,/
CCN(Cc1ccccc1)S(=O)(=O)c1ccc(C(=O)N(CCCN(C)C)c2nc3cc(OC)ccc3s2)cc1,/,/,8,-5%,-1%[15.4 µM],/,-6
CSc1nc(N)nc2c1ncn2CC(=O)N[C@H](CO)Cc1c[nH]c2ccccc12,/,/,-15,6%,/,-3.4%,/
CCNc1nc(NCC)n2c(SCC(=O)Nc3ccccc3OC(F)F)nnc2n1,/,/,3,-9%,-6%,-6.6%,/
O=C(Nc1nccs1)C1CCN(S(=O)(=O)c2ccc(Cl)c(C(F)(F)F)c2)CC1,-1.5,5%,6,-1%,16%,1.2%,25
COc1ccc(/C=C/C(=O)OCC(=O)NCc2ccccc2)cc1OC,/,/,6,15%,5%,?,19
O=C(CSc1nc2ccccc2c(=O)n1CC1CCCCC1)N1CCOCC1,0.5,8%,-14,-1%[15.4 µM],25%,-1.7%,9
CCCC(=O)Nc1ccc(C(=O)O)cc1NC(=O)CCC,2.3,10%,-12,-2%,1%,0.4%,1
CCN1CCN(c2ccc(NC(=O)c3ccc4c(c3)OCO4)cc2)CC1,-1.8,9%,3,2%,11%,0.4%,-3
CCOC(=O)C1(CCc2ccccc2)CCN(C(=O)CCn2cncn2)CC1,1.9,15%,4,5%,-52%[inhibitor],/,-6
CN(C)c1nc(OCCNC(=O)Nc2ccccc2)nc(N2CCCCC2)n1,-1.4,12%,2,-29%,12%[15.4 µM],-12%,7
COc1ccccc1NC(=S)NC1CCCC1,/,/,-5,3%,0%,0.3%,/
Cc1ccccc1-n1c(SC(C)C(=O)N2CCN(C)CC2)nc2ccccc2c1=O (stereo not given),-0.5,11%,-16,17%,-51%[inhibitor],0.8%,-1
OCC[C@@H]1C[C@@H](O)[C@H](O)[C@@]2(CCCO2)O1,/,/,-5,10%,-43%[inhibitor],-0.3%,/
CN(c1ccccc1C(=O)N1CCN(c2cccc(Cl)c2)CC1)S(C)(=O)=O,0.0,17%,-1,8%,6%,0.1%,-3
COCCOC(=O)C1=C(C)NC(=O)N(C(C)=O)C1c1ccc(Cl)cc1 (stereo not given),4.7,14%,22,15%,-12%,-1.1%,7
Cn1c(SCC(=O)Nc2ccccc2[N+](=O)[O-])nnc1C(F)(F)F,1.1,22%,-1,8%,6%[15.4 µM],0.3%,0
Cc1cccc(NC(=O)c2cc3ccccc3nc2C)c1,6.6,11%,4,0%,20%,/,-8
COc1ccc(C2=NOC(CNC(N)=S)C2)cc1 (stereo not given),2.6,5%,-21,-3%,-15%,0.3%,5
Cc1ccc(-c2csc(N(CC3CCCO3)C(=O)c3ccco3)n2)cc1 (stereo not given),0.6,-18%,19,-19%,-62%[inhibitor],-6.1%,-11
COc1ccc(C2CC(=O)c3cnc(NC(=O)c4ccccc4)nc3C2)cc1OC (stereo not given),-2.7,13%,-26,-1%,-22%,0.5%,-3
COC(=O)C1=C(NC(=O)c2cccs2)CCS1,5.6,7%,/,/,/,/,-4
FC(F)(F)c1ccc(-c2noc(CN3CCCN(C4CCCCC4)CC3)n2)cc1,3.6,11%,3,8%,-10%,-0.3%,-1
COc1cc(OC)c(OC)cc1CNC(=O)c1cccc(S(=O)(=O)N2CCc3ccccc3C2)c1,/,/,0,?,26%,-4.0%,23
COc1ccccc1NC(=O)CSc1nn2c(=O)c(C)nnc2s1,/,12%,-7,1%,-6%,-1.1%,16
O=C(Cc1ccc(Cl)cc1)NCCS(=O)(=O)N1CCN(c2ccccc2F)CC1,/,/,19,-11%,-56%,-1.6%,-15
COc1cc(OC)c2c(=O)c(OC)c(-c3ccc(OC)c(OC)c3)oc2c1,5.3&0.3,-1%&17%,/,6%,/,4.7%,3
O=C(NC1CCCC1)C(c1cccs1)N(C(=O)c1ccco1)c1ccc2c(c1)OCCO2 (stereo not given),2.0,-5%,0,-5%,-5%,-0.6%,2
CCOC(=O)/C(C#N)=C/Nc1ccsc1C(=O)OC,-0.5,-3%,1,-1%,-65%[inhibitor][15.4 µM],/,11
COc1cccc(N2CC(C(=O)Nc3nnc(SCc4ccccn4)s3)CC2=O)c1 (stereo not given),3.6,-25%,-16,1%,-7%,-2.1%,-1
CCc1nnc(NC(=O)C2CCN(c3ncnc4sc(C)c(C)c34)CC2)s1,/,/,0,-7%,-7%,0.3%,14
CC1CN(Cc2nc3c(c(=O)[nH]c(=O)n3C)n2CCN2CCOCC2)CC(C)O1 (stereo not given),-2.0,18%,-13,6%,0%,-2.1%,6
